High-throughput results (PubChem BioAssay)
Rango-impB inh: prevents formation of the Rango-importin beta complex; AID 540263; Rango CFP/YFP FRET sensor + importin beta, 45 min; Potency, µM (highest dose often 92.2 µM), inactives show at the highest dose inhibition of complex formation; Q14974; hit rate 0.031% among 340,000; active = rising FRET ratio curve, often small or poorly fitted; inconclusive = mostly compound fluorescence or quenching in the first reads; inactive = flat curves in all reads;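 further: potency means the concentration at half of the fitted maximal effect; 0% = DMSO wells and 100% = buffer wells lacking importin beta; nearly all actives have a fitted effect of over 15% in size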
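Inhibition scored from the CFP 486 nm/YFP 530 nm FRET ratio 45 min after adding 0.125 microM importin beta to 50 nM Rango biosensor preincubated 5 min with compound (room temperature, PBS with DTT, Tween-20, BSA). No-importin wells as positive control.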
Rango release inh: inhibitors of RanGTP-induced Rango-importin beta complex dissociation. O95149+P62826. Biochemical FRET Rango-importin beta, RanGTP-induced dissociation. Potency, µM (top dose mostly 46.1 µM), for the others: at the highest dose activity change, negative = inhibition. hit rate 0.071% among 340,000. AID 540253; active means falling FRET ratio curve, often poorly fitted, with flat reads before Ran was added; inconclusive means other falling curves, or compound fluorescence or quenching; inactive means flat or rising ratio curve;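 further: potency means the concentration at half of the fitted maximal effect; % of control where 0% means no effect; nearly all actives have a fitted effect of over 45% in size; -100% = wells without RanGTP and RCC1; the record marks most hits as doubtful in a second field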
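Compounds sat 5 min at room temperature with 0.1 uM Rango biosensor plus 0.25 uM importin beta, then FRET pre-read. RanGTP-RCC1 (0.6 uM Ran, 2mM GTP, 0.2 uM RCC1) added for 45 min, and the CFP/YFP post-read measured blocked complex dissociation.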
miR-21 FLuc: miR-21 reporter, rising signal | Potency, µM (top dose mostly 38.3 µM), for inactives: at the top dose reporter change, positive = more light | 340,000 tested, under 10 active | HeLa miR-21 FLuc reporter, luciferase, 48 h; active = well fitted rising curve with a large enough effect; inconclusive = small, poorly fitted or top-dose-only effect; inactive = no such curve, though single readings can be large or run the other way;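 further: % of control where 0% means no effect; miR-21 action dims this reporter so a rising signal means less miR-21 action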
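HeLa cells endogenously expressing miR-21, stably carrying CMV-driven firefly luciferase with a downstream miR-21 binding site, 2000 cells/well. Titrations up to approximately 40 uM, 48 hours; luciferase luminescence read.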
GLA inh pH 4.5: blocks human alpha-galactosidase A at pH 4.5; 230,000 tested, under 10 active; purified enzyme, 4-MU-alpha-Gal fluorescence, pH 4.5; activity change, negative = inhibition, % at 105 µM; P06280; inconclusive = small, poorly fitted or top-dose-only inhibition, or a rising curve; inactive = flat fitted curve, though single readings scatter; no compound was filed as active;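 further: 0% = full activity with enzyme and -100% = basal without enzyme; dose as in the result columns while the protocol names 77 µM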
Target sequence (P06280 whole entry, looked up): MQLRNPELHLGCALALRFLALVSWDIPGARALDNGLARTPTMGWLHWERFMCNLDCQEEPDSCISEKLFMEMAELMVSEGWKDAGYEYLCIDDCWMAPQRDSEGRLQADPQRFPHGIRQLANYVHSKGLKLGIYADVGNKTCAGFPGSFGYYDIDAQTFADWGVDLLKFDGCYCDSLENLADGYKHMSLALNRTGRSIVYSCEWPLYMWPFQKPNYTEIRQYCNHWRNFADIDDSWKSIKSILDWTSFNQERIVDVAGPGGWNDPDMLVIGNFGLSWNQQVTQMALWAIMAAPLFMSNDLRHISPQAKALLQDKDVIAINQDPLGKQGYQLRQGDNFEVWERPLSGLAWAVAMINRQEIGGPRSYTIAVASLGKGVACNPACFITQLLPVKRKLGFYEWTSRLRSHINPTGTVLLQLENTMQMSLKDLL
An asterisk follows results filed as active; ? = inconclusive; / = no result given; & = joins results of further samples. Some of the compounds tested (hit frequency here may not be typical).

SMILES	Rango-impB inh	Rango release inh	miR-21 FLuc	GLA inh pH 4.5
Cc1cc(C)c(NC(=O)COC(=O)C2CCCCC2)c(C)c1	-3.1%	-9%	/	/
CC(C)[C@H](NS(=O)(=O)c1ccc2c(c1)OCCO2)C(=O)OCC(=O)Nc1cc(Cl)ccc1Cl	0.1%	-16%	16%	-15
CCOC(=O)c1ccc(CNCc2ccc(Br)cc2)cc1	0.9%	8%	-6%	-1
COc1ccc(NC(=O)COC(=O)C2CCN(S(=O)(=O)c3cccs3)CC2)cc1OC	-1.2%	1%	/	/
COc1ccc(CCN2CC(C(=O)N(C)CCc3cn[nH]c3)CCC2=O)cc1 (stereo unspecified)	-0.1%	19%	-4%	/
S=C(NCc1ccco1)Nc1cc(-c2ccccc2)[nH]n1	8.7%	-16%	-26%	2
Cc1ccccc1C(=O)N1CCC(C(=O)O)CC1	3.1%	0%	-1%	5
CCCc1nc2ccc(NC(C)=O)cc2c(=O)n1Cc1cccc(Cl)c1	-0.6%	0%	-16%	/
CN(CCCC[C@H](CNCc1ccc(-c2ccccc2)cc1)N1C[C@H](c2ccccc2)N(CCc2ccc(Cl)c(Cl)c2)C(=O)C1=O)Cc1ccc(-c2ccccc2)cc1	/	/	?	-23
CCOC(=O)N1CC=C2C(C#N)=C(N)C(C#N)(C#N)[C@H](c3ccccc3OCC)[C@H]2C1	-0.4%	25%	-8%	1
COC(=O)C(C(=O)OC)c1ccc(-n2cccc2)cc1	1.5%	-9%	-9%	8
CCCc1cc(C(=O)Nc2cc(C)nn2-c2ccccc2)no1	-9.7%	-20%	-7%	1
O=C1C2C3CC(C(Br)C3Br)C2C(=O)N1c1ccccn1 (stereo unspecified)	?	-19%	0%	-3
O=C(CN1C(=O)S/C(=C\c2ccc(Cl)cc2)C1=O)NCCCn1ccnc1	-0.4%	-7%	7%	/
Cc1nc(NC(C)c2ccccc2)c2oc3ccccc3c2n1 (stereo unspecified)	0.0%	-9%	19%	-25
NS(=O)(=O)c1cccc(NC(=O)CSc2nc3ccc(Cl)cc3[nH]2)c1	-2.1%	10%	-7%	5
COc1ccc(Nc2nccc3c2nnn3C)cc1	3.8%	6%	-36%	4
COc1ccc(CCN=C(N)NS(=O)(=O)c2cccs2)cc1	1.1%	7%	-8%	0
N#Cc1nc(COc2ccc(Br)cc2)oc1NCCCn1ccnc1	-3.6%	?	-2%	-7
CC(C)CCNC(=O)C1CCCN1C(=O)NC1CCCCC1 (stereo unspecified)	1.6%	-5%	-6%	-11
OC(Cn1cncn1)(c1ccccc1)c1ccccc1	?	-4%	-2%	6
CCC1Oc2ccccc2N(CC(=O)NC2CCCC2)C1=O (stereo unspecified)	3.1%	1%	-1%	/
Cn1c(N)c(C(=O)c2ccc(F)cc2F)c(=O)n(C)c1=O	6.2%	-6%	-7%	-6
O=C(Nc1ccccc1C(=O)Nc1ccccn1)c1ccccc1F	0.8%	1%	10%	/
O=C(Nc1nnc(COc2ccccc2)s1)c1ccco1	-4.0%	6%	-8%	0
The listing continues:
SMILES	Rango-impB inh	Rango release inh	miR-21 FLuc	GLA inh pH 4.5
Cc1cc(C)cc(NC(=O)C2CCN(C(=O)[C@@H]3Cc4ccccc4CN3)CC2)c1	2.9%	-3%	-12%	/
CN1CCN(C(=O)CSc2nc3ccc(NC(=O)c4ccccc4F)cc3s2)CC1	2.7%	-16%	-18%	-1
CCOc1cc(/C=N/NC(=O)c2cccnc2)ccc1O	-0.9%	-6%	7%	-8
CC(NC(=O)C1CCN(S(=O)(=O)c2ccc(Br)s2)CC1)c1ccccc1 (stereo unspecified)	-0.9%	-8%	2%	/
CN(CC(=O)Nc1ccc(Cl)cc1)CC(=O)Nc1cccc2ccccc12	0.7%	6%	/	/
Cc1cc(C)n(-c2ccc(C(=O)OCn3nnc4ccccc4c3=O)cc2)n1	-0.1%	-6%	-4%	-3
CCCN1CCC(=O)N([C@H](CSc2ccc(Br)cc2)Cc2ccccc2)CC1	-0.3%	-6%	0%	-25
COc1ccc(NC(=O)CCC(=O)c2cccs2)cc1S(=O)(=O)Nc1ccc(Cl)cc1	9.6%	-10%	20%	1
O=C(CCc1nc2ccccc2c(=O)[nH]1)NCc1ccco1	-2.5%	35%	10%	8
Cn1c(=O)[nH]c(=O)c2c1nc(N1CCCCC1)n2C/C=N/NC(=O)c1cc(Br)ccc1O	-2.4%	-20%	-1%	-3
CCOC(=O)c1[nH]c(C)c(C(=O)N(C)Cc2ccccc2)c1C	-1.2%	-2%	-12%	0
Cc1ccc(-c2ccnc(-c3ccc(O)cc3)n2)cc1	1.9%	11%	-38%	1
CC(OC(=O)C1=COCCO1)C(=O)Nc1ccc(Oc2ccccc2)cc1 (stereo unspecified)	-2.4%	0%	-2%	-3
COc1ccc(N2CCN(C(=O)Cc3nn(C)c(=O)c4ccccc34)CC2)cc1	0.1%	0%	5%	7
COc1ccc(CCNC(=O)COC(=O)/C=C/c2cccc(F)c2)cc1	2.5%	1%	/	/
O=Cc1ccc(OC(=O)/C=C/c2ccccc2)cc1	-5.2%	0%	-5%	/
CC(=O)C1=C(C)N2CCN=C2S1	0.7%	2%	-3%	-12
CCOc1ccccc1N(CC(=O)Nc1ccc(C)cc1)S(C)(=O)=O	2.2%	17%	-11%	0
Cc1[nH]nc(SCC(=O)N2CCCCC2)c1[N+](=O)[O-]	9.9%	-5%	-43%	-1
COc1ccccc1NC(=O)C1=C(C)NC(=O)NC1c1ccccc1[N+](=O)[O-] (stereo unspecified)	-1.4%	2%	-55%	0
CSCCC(NC(=O)COc1ccccc1)C(=O)N1CCN(c2ccccc2Cl)CC1 (stereo unspecified)	3.2%	-8%	/	/
COC(=O)[C@@]12CCCN1[C@H](c1ccc(-c3ccc(Cl)c(Cl)c3)cc1)[C@H]1C(=O)N(C)C(=O)[C@H]12	?	-17%	/	/
COc1ccc2oc(-c3ccc(C)c(NC(=O)CSc4ccc(Cl)cc4)c3)nc2c1	-2.8%	7%	-36%&-31%	6
CCN(CC)CCNC(CC(=O)Nc1ccc(Cl)cc1Cl)C(=O)O (stereo unspecified)	0.5%	-8%	-5%	-1
CS(=O)(=O)c1ccc(C(=O)OCC(=O)c2ccc(Cl)s2)cc1	-1.8%	2%	/	/

Complete entries, quoted from the list:
COc1ccc(NC(=O)CCC(=O)c2cccs2)cc1S(=O)(=O)Nc1ccc(Cl)cc1 in the list: Rango-impB inh: 9.6%; Rango release inh: -10%; miR-21 FLuc: 20%; GLA inh pH 4.5: 1
S=C(NCc1ccco1)Nc1cc(-c2ccccc2)[nH]n1 in the list: Rango-impB inh: 8.7%; Rango release inh: -16%; miR-21 FLuc: -26%; GLA inh pH 4.5: 2

(further entries)
SMILES	Rango-impB inh	Rango release inh	miR-21 FLuc	GLA inh pH 4.5
Cc1cccc(C(=O)N2CCCC(Nc3ccc(C)c(C)c3)C2)n1 (stereo unspecified)	4.5%	-3%	-4%	/
O=C(/C=C/c1cccs1)NNC(=O)c1cccc([N+](=O)[O-])c1	-0.5%	-18%	/	/
O=C(NC1CCCC1)C(c1ccccn1)N(C(=O)c1csnn1)C1CC1 (stereo unspecified)	-5.0%	4%	1%	6
Cc1ccc(S(=O)(=O)N2CCCC2C(=O)NCc2ccccc2Cl)cc1 (stereo unspecified)	-0.2%	13%	0%	/
COc1ccc(NC(=O)COC(=O)COc2cccc(Br)c2)cc1OC	-1.9%	9%	-1%	-4
Fc1cccc(CCN2CCNC[C@@H]2Cc2ccccc2)c1	-4.0%	9%	/	/
NC(=O)C[C@H]1NC(=O)[C@H](CCC(=O)O)NC(=O)c2cc([N+](=O)[O-])cc(I)c2NCCC[C@@H](C(N)=O)NC1=O	-1.0%	-2%	-3%	-7
CC/C(=N\NC(=O)CNC(=O)/C=C/c1ccc(OC)cc1)c1ccccc1	2.7%	6%	0%	/
COc1ccccc1N(C)S(=O)(=O)c1ccc(C(=O)NCc2ccccc2CN2CCCC2)cc1	-0.1%	-13%	/	/
CNC(=O)c1cc2cc(Br)ccc2s1	-5.2%	0%	-11%	0
O=C(CN1CCN(CCC(=O)Nc2ccccc2F)CC1)Nc1ccc(Cl)cc1	-3.2%	-6%	-7%	-6
Cc1cc(Cl)cc(C)c1OCCn1ccnc1	-0.5%	-2%	20%	/
Cc1cccc(OCCCC(=O)NC(C)C)c1	1.2%	2%	-4%	1
CNC(=O)c1ccccc1Sc1ccccc1CO	-0.5%	13%	-4%	1
Cc1ccc(C)c(-n2c(=O)c(C#N)cc3c(=O)n4ccccc4nc32)c1	?	?	5%	?
Cc1nc(SCC(=O)Nc2c(C)n(C)n(-c3ccccc3)c2=O)c2cnn(-c3ccccc3)c2n1	-1.7%	1%	/	/
O=C(CCn1cccc1)NCCc1ccc(Cl)cc1	0.0%	3%	-13%	-7
O=c1ccc(=O)n(-c2ccccc2)[nH]1	0.7%	0%	-1%	-3
CC(=O)Nc1cccc(Oc2nc(C)cc(C)c2C#N)c1	0.1%	-3%	-6%	4
COc1ccc(NC(=O)Cc2ccc(C)c(C)c2)cc1S(=O)(=O)N1CCCCC1	1.9%	-1%	/	/
O=C(O)c1ccc(N2CCCCC2)cc1O	-1.6%	-1%	-18%	0
CCOC(=O)/C=c1\s/c(=C\c2c(OC)ccc3ccccc23)c(=O)n1CC(=O)NCC1CCCO1 (stereo unspecified)	?	?	23%	-4
COC(=O)C12CCC3(SCCS3)C(C(=O)OC)(CCC13SCCS3)C2	-0.8%	1%	-6%	-8
O=C(CSc1ncc(C(F)(F)F)cc1Cl)NCC1CCCO1 (stereo unspecified)	-1.0%	-9%	-4%	3
Cc1cc(-c2nnc(SCC(=O)c3ccc(F)cc3)o2)no1	0.8%	20%	1%	-4

Single values from the list.
CNC(=O)c1cc2cc(Br)ccc2s1 in miR-21 FLuc shows -11%
CCOC(=O)/C=c1\s/c(=C\c2c(OC)ccc3ccccc23)c(=O)n1CC(=O)NCC1CCCO1 (stereo unspecified) in miR-21 FLuc shows 23%

The listing continues.
SMILES	Rango-impB inh	Rango release inh	miR-21 FLuc	GLA inh pH 4.5
O=C(Nn1cnnc1)c1ccccc1-c1ccccc1	?	-1%	-7%	8
O=C(COC(=O)Cc1ccc(Cl)cc1)Nc1ccccc1F	1.0%	21%	1%	6
CCCCOC(=O)Nc1ccc(S(=O)(=O)Nc2nc(C)cc(C)n2)cc1	-4.3%	3%	-5%	-4
O=C(O)C1Nc2c(C(F)(F)F)ccc(Cl)c2C2C=CCC12 (stereo unspecified)	-1.4%	-10%	-2%	/
CCOC(=O)c1nnc(-c2ccccc2)nc1NCc1ccc(Cl)cc1	-3.7%	28%	-3%	3
CCCC(=O)Nc1ccc2oc(-c3cncc(Br)c3)nc2c1	0.5%	-4%	-47%	6
Cc1cc(C)c(C(=O)NC2CC(C)(C)Cc3c2cnn3-c2cccc(F)c2)[nH]1 (stereo unspecified)	-3.2%	-26%	7%	/
O=[N+]([O-])c1ccc2nc(N3CCCC3)sc2c1	2.8%	2%	-54%	/
CCOC(=O)c1cnc(SCC(=O)Nc2cccc(OC)c2)nc1N	-6.4%	-1%	9%	-16
CN(C)c1ccc2c3c(ccc(N(C)C)c13)C(=O)OC2	3.5%	-5%	4%	-11
Cc1cc(C(=O)Nc2ccc3c(c2)OCO3)no1	2.9%	4%	-4%	/
FC(F)(F)c1cnc(N2CCN(C(=S)NCc3ccccc3)CC2)c(Cl)c1	-3.0%	4%	9%	-12
CCC(=O)Nc1ccc(C(=O)Cn2nc(C(=O)O)c3ccccc3c2=O)cc1	/	/	-8%	4
Cc1ccccc1Nc1ccc2nonc2c1[N+](=O)[O-]	0.3%	-7%	-7%	/
Cc1cc(NC(=O)CCCC(=O)N(CC(=O)NC2CCCCC2)c2ccccc2)no1	-0.2%	27%	1%	-5
CCN1C(=O)c2cccc3c(N)ccc(c23)C1=O	?	?	-25%	/
NC(=O)CC(NC(=O)Cc1ccc(Cl)cc1)c1ccc(NC2CC3CCC2C3)c([N+](=O)[O-])c1 (stereo unspecified)	-1.3%	-2%	11%	/
O=C(Nc1nc2ccccc2n1CCN1CCCCC1)c1ccco1	0.1%	11%	-20%	8
